Assay outcomes deposited in PubChem BioAssay by several laboratories.
Mtb hypoxia inh = PubChem AID 1159583 | M. tuberculosis hypoxia-regulated fluorescent reporter, fluorescence | fluorescence inhibition, % (concentration not given with the values) | 0.1% of 300,000 active;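 active = 35 to 45% if threefold the growth effect, above 45% if 1.5-fold the growth effect; inactive = the rest, general growth blockers included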;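 note: wells of about 50 µL received 100 nL stock; 0% = vehicle wells and 100% = reference inhibitor wells; whole bacteria with a GFP reporter of the hypoxia response; strong numbers were not always called active; many hits fall short of the cut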
Bead autofluor = counter-screen for toxin protease inhibitors: compound fluorescence | fluorescence intensity (no concentration beside the values) | compound autofluorescence counterscreen, microsphere flow cytometry; stronger effect = higher value | 3.1% of 360,000 active;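 active = at least 3 SD above the mean of all compounds, about 16000 in these data; inconclusive = too few beads counted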;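 note: 100 nL of 1 mM stock went into each well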
RN4220 kill = growth inhibition of S. aureus RN4220, primary screen, OD600 | 16 h | inhibition, % (test concentration not listed) | 0.33% of 330,000 active;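 active = z-score of -3 or lower and OD600 up to 0.18 on both plates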;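 note: plate controls were untreated cells for no effect and reference antibiotic for full effect; stock transfer was 100 nL into about 80 µL; one replicate is shown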
BJeLR lethal = MLPCN primary cell-based screen for lethality selective to Ras in HRASV12 cells | BJeLR (HRASV12) viability, CellTiter-Glo ATP luminescence, 48 h; reference of the scale not given here | inhibition, % (concentration not given with the values) | 0.17% of 300,000 active;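 active = replicate mean above 50%; inconclusive = above 50% but judged a plate artefact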;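 note: 50 nL library stock added to about 25 µL; numbers are from one replicate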
Sa ugtP lethal = growth inhibition of ugtP-null S. aureus, primary screen, RN4220 ugtP deletion, OD600. growth inhibition, % (concentration not given with the values). 0.54% of 330,000 active. 16 h; some inactives read as strong as hits;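 active = z-score under -3 and OD600 up to 0.15 on both plates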;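 note: plate controls were untreated wells for no effect and antibiotic for full effect; wells of about 80 µL received 100 nL stock; the first replicate is given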
PrP 5UTR inh = inhibition of PrP 5' UTR reporter expression. inhibition, % (no concentration beside the values). 0.35% of 340,000 active. cell-based PrP 5' UTR mRNA reporter, plate reader;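 active = every replicate at 50% or more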;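 note: 0 = median of the neutral control wells; tested in H4 reporter cells; numbers are from one replicate; inactives centre near -14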
Mtb hypoxia inh growth = also measured in Mtb hypoxia inh; calls as there; growth inhibition, %; measured here: M. tuberculosis growth (absorbance);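 0% = vehicle and 100% = reference antibiotic; read after six days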
An asterisk follows results filed as active; ? = inconclusive; / = no result given; & = joins results of further samples. This is a random part of the collection; overall some 4% were active at least once.

SMILES	Mtb hypoxia inh	Mtb hypoxia inh growth	Bead autofluor	RN4220 kill	BJeLR lethal	Sa ugtP lethal	PrP 5UTR inh
Cn1c(NCCCN2CCOCC2)nc2c1c(=O)n(Cc1ccc(Cl)cc1Cl)c(=O)n2C	-7	6	21423*	0.2	-11	-9	12
Cc1cc([N+](=O)[O-])nn1CCC(=O)Nc1nccs1	-3	1	3484	4.0	8	7	-13
COc1cc(S(=O)(=O)N2CCC(c3nc4ccccc4s3)CC2)ccc1S(=O)(=O)NC1CCCC1	5	0	10612	3.0	3	-2	-29
CC(=O)Nc1ccc(NC(=O)[C@@H](NC(=O)c2cccc(C)c2)C(C)C)cc1	-1	-7	4182	7.1	-9	12	-9
CCOC(=O)C(NC(=O)c1ccccc1)=C1C=C(C)OC(C)=C1	7	10	2415	-7.5	10	4	-3
COc1cccc(NC(=O)Cn2c(SCC(=O)N3CCOCC3)nc3ccccc32)c1	9	-1	16158*	3.4	8	4	-21
COc1cc2c(cc1OC)-c1nnc(-c3cccs3)n1C(C)(C)C2	5	4	5659	1.6	3	15	-2
Cn1c(/C(C#N)=C2/CCCCCN2)nc2ccccc21	/	/	2748	/	2	/	-13
O=C(O)/C(=C\c1ccco1)NC(=O)c1ccco1	2	8	2756	2.8	3	9	-18
COC(=O)C1=C(c2c(C)noc2C)C[C@@H]2CC[C@H]1N2C(=O)NCc1ccc(C(F)(F)F)cc1	-4	9	3561	6.4	/	0	-16

5 compounds picked at random from those above:
SMILES	Mtb hypoxia inh	Mtb hypoxia inh growth	Bead autofluor	RN4220 kill	BJeLR lethal	Sa ugtP lethal	PrP 5UTR inh
COc1cccc(NC(=O)Cn2c(SCC(=O)N3CCOCC3)nc3ccccc32)c1	9	-1	16158*	3.4	8	4	-21
COc1cc2c(cc1OC)-c1nnc(-c3cccs3)n1C(C)(C)C2	5	4	5659	1.6	3	15	-2
COC(=O)C1=C(c2c(C)noc2C)C[C@@H]2CC[C@H]1N2C(=O)NCc1ccc(C(F)(F)F)cc1	-4	9	3561	6.4	/	0	-16
CC(=O)Nc1ccc(NC(=O)[C@@H](NC(=O)c2cccc(C)c2)C(C)C)cc1	-1	-7	4182	7.1	-9	12	-9
Cc1cc([N+](=O)[O-])nn1CCC(=O)Nc1nccs1	-3	1	3484	4.0	8	7	-13

(next part)
SMILES	Mtb hypoxia inh	Mtb hypoxia inh growth	Bead autofluor	RN4220 kill	BJeLR lethal	Sa ugtP lethal	PrP 5UTR inh
COc1ccc(C(NC(=O)c2ccccc2F)NC(=O)c2ccccc2F)cc1	14	10	2608	11	-6	5	-17
COc1ccc2c(c1)-c1c(sn(-c3ccc(OC)c(OC)c3)c1=S)C(C)(C)N2	-4	11	4478	-4.3	0	19	-11
Cn1c(=O)[nH]c(=O)c2c1nc(N1CCOCC1)n2CCc1ccccc1	-4	2	2206	0.5	7	1	-17
N#Cc1ccc(OCC(O)CN2CCN(c3ncc(C(F)(F)F)cc3Cl)CC2)cc1 (configuration not stated)	-2	5	5271	2.0	4	6	-9
Cc1cc(Cl)ccc1OCC(=O)NC(=S)Nc1ccccc1N1CCOCC1	5	-2	2467	15	-15	3	-26
COc1ccc(NC(=O)CSc2nnc(Cn3c(=O)sc4ccccc43)n2C)cc1	/	/	5743	2.3	/	5	-11
CC(C)(C)C1COC(=O)CCC=CCC(CC(=O)N(CCO)Cc2ccccc2)C(=O)N1 (configuration not stated)	3&7	13&12	/	1.7&4.2	/	0&-6	/
CCN1CCN(C(=O)C2CCN(S(=O)(=O)c3ccc4c(c3)NC(=O)C(C)S4)CC2)CC1 (configuration not stated)	13	2	4315	7.0	-8	15	-4
COc1ccccc1-n1c(=S)[nH]c2c(sc(=S)n2-c2ccccc2)c1=O	9	6	4630	7.8	-5	4	-15
CC(C)(C)OC(=O)NCCC(=O)N/N=C/c1ccc2nccnc2c1	/	/	4005	/	0	/	-15
Cc1nn(-c2ccccc2)c2c1C(c1cccc([N+](=O)[O-])c1)N(c1ccccc1)C(=O)N2 (configuration not stated)	-8	5	2522	3.6	-8	-4	-2
CCc1c(C)nc(N)n2c(SCC(=O)Nc3ccccc3OC)nnc12	1	0	23325*	4.8	/	4	-22
Cc1ccc(-n2c(O)c(C=NCc3cccnc3)c(=O)[nH]c2=O)cc1C	8	14	3230	-16	19	-12	-23
Cn1cccc1C(=O)OCc1cc(Cl)cc2c1OCOC2	9	-7	3632	0.3	-2	37	-57
O=C(c1cc(O)c(O)c([N+](=O)[O-])c1)c1ccccc1F	6	-3	4358	36	/	4	-1
C=CCN1CC(C)/C(=N\O)CC1C (configuration not stated)	/	/	5908	/	3	/	-3
CCOc1ncccc1C(=O)N1CCN(S(=O)(=O)c2ccc3ccccc3c2)CC1	12	5	3977	4.4	3	1	-14
CC[N+](CC)(CCCCS(=O)(=O)[O-])CCNP1(=O)C=C(c2ccccc2)OC(c2ccccc2)=C1	-12	7	4189	0.6	-5	-12	-6
CCN(C(=O)COC(=O)c1ccccc1NCc1ccco1)c1c(N)n(Cc2ccccc2)c(=O)[nH]c1=O	2	4	3578	4.2	/	3	-13
CCc1ccc(NC(=O)C2CCN(S(=O)(=O)c3cccs3)CC2)cc1	-6	-2	4822	-2.9	-6	-16	-2
COCCCNC(=O)c1ccc2c(=O)n(Cc3ccccc3OC)c(=S)[nH]c2c1	-9	3	4078	-1.4	-2	-1	6
COc1ccccc1/C=C/C=N/NC(=O)c1ccncc1	/	/	2536	/	-6	/	-17
CC(=O)N(c1ccccc1)c1nc(/C=C/C(=O)O)cs1	2	16	4382	2.9	-2	-2	-2
CCOc1ccc(NC(=O)CSC2=NN3CCCC(=O)N=C3S2)cc1	1	0	5892	2.0	2	5	-17
COc1ccc(C2C(C(=O)c3ccc(C)o3)=C(O)C(=O)N2CC2CCCO2)cc1OC (configuration not stated)	2	5	5352	5.7	-3	15	-45
Oc1cccc2c(NC(=S)Nc3ccc(SC(F)F)cc3)cccc12	9	10	2054	26	-3	80	15
COc1ccc(CCNC(=O)c2cccc3ccccc23)cc1OC	20	13	3539	2.8	-3	9	-38
Cc1ccc(NC(=O)CSCC(=O)OC(C)C(=O)Nc2ccccc2C)cc1 (configuration not stated)	6	5	?	-2.3	/	7	-14
Cc1cc(C)nc(SCc2ccc(C(=O)N/N=C/c3ccc(C(=O)O)cc3)cc2)n1	/	/	3041	/	3	/	-7
COc1ccc(Nc2cc(C)nc3ncnn23)cc1Cl	1	19	2896	2.2	0	0	1
CC(NS(=O)(=O)c1ccc([N+](=O)[O-])cc1)C(=O)NN (configuration not stated)	1	3	4457	2.9	3	-9	26
S=P(N1CCOCC1)(N1CC1)N1CC1	5	1	4268	0.4	/	2	-2
Cc1cc(NS(=O)(=O)c2ccc(NC(=O)Cc3cccs3)cc2)no1	8	10	14702	5.9	12	-1	0
COc1ccc(C(=O)C2CCCN(C(=O)c3cccnc3OC)C2)cc1F (configuration not stated)	0	3	4117	3.0	0	0	-8
Cc1sc2ncnc(N3CCC(C(=O)Nc4nnc(CC(C)C)s4)CC3)c2c1C	-17	6	/	1.4	-4	-3	-9
CC(C)C(=O)NCCc1nc(-c2ccc(Cl)cc2)no1	12	12	4160	2.7	-2	0	-42
CCCCn1c(-c2csc3ccccc23)n[nH]c1=S	1	-1	11292	3.5	/	3	-20
COc1ccc([C@@H]2CC(=O)c3c(O)cc(O[C@@H]4O[C@H](CO[C@@H]5O[C@@H](C)[C@H](O)[C@@H](O)[C@H]5O)[C@@H](O)[C@H](O)[C@H]4O)cc3O2)cc1O	/	/	5675	/	4	/	3
O=C(Nc1nnc(COc2ccccc2F)s1)Nc1ccccc1F	6	8	3795	-0.5	6	-8	-2
CS(=O)(=O)N1CCc2cc(NC(=O)c3ccc(Cl)cc3Cl)ccc21	9	5	4726	-0.7	-1	-3	-26
O=C(COC(=O)C1CC(=O)N(Cc2ccccc2)C1)Nc1cccc([N+](=O)[O-])c1 (configuration not stated)	-2	2	5470	1.6	/	9	-7
Cc1noc(C)c1C(=O)NCc1ccco1	15	2	10070	4.1	0	2	-10
O=C(CCl)NCCN1C(=O)S/C(=C\c2cccnc2)C1=O	12	12	3271	3.7	-1	-1	-13
O=C(CN1CCCCCC1)NC(c1ccccc1)c1ccccc1	3	-3	2983	-0.3	-2	2	7
Cc1ccc(C)c(S(=O)(=O)N2CCCN(C)CC2)c1	1	8	5577	-0.8	-4	2	-1
COc1cc(/C=N/Nc2ccc(C(F)(F)F)cn2)ccc1O	/	/	4421	/	0	/	-21
Cc1ccc2cccnc2c1NC(=S)NC(=O)c1ccccc1	7	12	22969*	-2.0	-8	-13	-11
CCN(CC(=O)Nc1c(F)cccc1F)C(=O)CSc1nnc(-c2ccco2)n1CC	7	0	4277	0.8	-23	8	-9
COCCNC(=O)c1c[nH]c2ccc(S(=O)(=O)Nc3ccccc3F)cc2c1=O	9	5	3149	4.2	-6	9	-17
COc1ccccc1C(=O)Nc1ccc(S(=O)(=O)Nc2cc(C)nc(C)n2)cc1	0	2	9010	2.2	-6	1	-13

Single records (already shown). Order of values: Mtb hypoxia inh | Mtb hypoxia inh growth | Bead autofluor | RN4220 kill | BJeLR lethal | Sa ugtP lethal | PrP 5UTR inh
COc1cc(/C=N/Nc2ccc(C(F)(F)F)cn2)ccc1O is listed as / | / | 4421 | / | 0 | / | -21
CCN(CC(=O)Nc1c(F)cccc1F)C(=O)CSc1nnc(-c2ccco2)n1CC is listed as 7 | 0 | 4277 | 0.8 | -23 | 8 | -9

(cont.)
SMILES	Mtb hypoxia inh	Mtb hypoxia inh growth	Bead autofluor	RN4220 kill	BJeLR lethal	Sa ugtP lethal	PrP 5UTR inh
COc1ccc([N+](=O)[O-])cc1NC(=O)C(C)OC(=O)C1CCCC1 (configuration not stated)	12	6	4220	1.4	9	5	6
Cc1cccc2cc3c(N)c(C(=O)N4CCOCC4)sc3nc12	9	5	3747	8.3	25	3	-45
O=S(=O)(NC1CCCCC1N1CCC(O)CC1)c1ccc(Cl)cc1 (configuration not stated)	2	-2	38091*	0.0	5	-1	-6
Cc1ccc(C=Nc2ccccc2C(N)=O)s1	-1	9	2547	4.0	24	-2	-43
CCCC(NC(=O)C(C)NC(=O)CO/N=C1\C=C2CCC3C4CCC(C(C)=O)[C@@]4(C)CCC3[C@@]2(C)CC1)C(=O)O (some centres not stated)	/	/	4248	/	1	/	-19
O=C1CC(N2CCOCC2)C(=O)N1c1ccc(Cl)cc1 (configuration not stated)	1	14	5160	1.7	17	4	-6
Cc1cccc(N(C(=O)c2ccc(Cl)cc2)C2CS(=O)(=O)CC2OC(=O)c2ccc(Cl)cc2)c1 (configuration not stated)	8	2	4418	0.5	-7	5	-8
COCCC(=O)N1CCC(Oc2ccc(C(=O)NC(C)CCn3cccn3)cc2)CC1 (configuration not stated)	8	4	5274	-1.0	0	6	-21
O=C(c1ccc(-c2ccc([N+](=O)[O-])cc2)o1)N1CCCCC1	/	/	2824	1.8	-5	7	-76
O=C(NN=Cc1ccc2c(c1)OCO2)C1COc2ccccc2O1 (configuration not stated)	14	6	/	1.9	/	10	/
CCOC(=O)C1CCCN(C(=O)/C=C/c2cc(OC)c(OC)c(OC)c2)C1 (configuration not stated)	/	/	2498	/	4	/	-25
O=C(CCOc1ccccc1)Nc1ccc(S(=O)(=O)Nc2ncccn2)cc1	-5	2	3694	-11	/	5	-16
Cc1ccc(SCc2nc3ccccc3n2CC(=O)Nc2ccccc2)cc1	-3	5	10066	6.6	-2	-18	/
C#Cc1ccc(CN2CCC(N3CCC(C(=O)NCc4ccccn4)CC3)CC2)cc1	4	9	8824	0.1	-3	1	3
Cc1cc(O)ccc1N/C=C1\CCCC1=O	4	2	9290	3.3	-17	-5	-18
COC(=O)C1=C(C(=O)OC)C2Nc3ccccc3[C@@]23CC(C(=O)OC)N(C(=O)CC(C)C)C3=N1 (some centres not stated)	0	0	/	-0.3	/	-10	/
O=C(NNC(=O)c1csc(N2CCOCC2)n1)c1ccc(Cl)nc1	-1	-7	4170	4.1	-5	7	10
COc1cc(OC)nc(NC(C)=O)n1	4	3	23958*	-1.4	-6	0	9
CC1=C(C)CC(C(=O)NNC(=O)c2ccccc2)C(C(=O)O)C1 (configuration not stated)	/	/	2905	1.5	-7	0	-20
Cc1ccc(C)c(NC(=S)N/N=C/C(C)c2ccccc2)c1 (configuration not stated)	/	/	4164	/	-1	/	3
Cc1cccc(N(C)S(=O)(=O)c2ccc3c(c2)C(C)(C)C(=O)N3C)c1	1	10	5139	6.8	12	-6	-6
